Screening data (PubChem)
B2AR ag – human beta-2 adrenergic receptor agonism by FAP; Am2.2-beta2AR cells, FAP receptor internalization, flow cytometry; reference of the scale not given here; AID 504454; hit rate 0.43% among 340,000; response, % (concentration not given with the values); P07550;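 active = response above a set limit, near 3 SD of response in nonfluorescent compounds, cut at about 42% in these data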;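 also: stock transfer was 100 nL into about 11 µL; a reference agonist was the positive control; negative values mostly stem from fluorescent compounds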
E coli growth – blocks Escherichia coli growth | OD600, 23 h; hits give low values | AID 1053175 | OD600 absorbance (no concentration beside the values) | hit rate 0.21% among 330,000;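 active = OD600 absorbance below the run mean of sample wells minus 3.6 SD, in any replicate, cut at about 0.56 in these data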;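 also: stock transfer was 300 nL into about 60 µL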
FGF22 binding – binders of recombinant human FGF22 by thermal shift. Q9HCT0. SYPRO orange fluorescence; percent of sucrose octasulfate shift, DMSO zero. calls only at 9.99 µM. hit rate 1.5% among 340,000;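 active = melting point raised past a set limit in the mean and every replicate; three in four hits are not shown here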
Target sequence (Q9HCT0 whole entry, looked up): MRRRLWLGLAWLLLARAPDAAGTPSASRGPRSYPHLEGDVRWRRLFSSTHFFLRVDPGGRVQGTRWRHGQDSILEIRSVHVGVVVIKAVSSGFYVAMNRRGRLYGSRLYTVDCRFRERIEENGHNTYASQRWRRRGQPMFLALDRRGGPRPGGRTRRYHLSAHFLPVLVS
LANA-H2B inh – blocks KSHV LANA binding to histone H2A/H2B | AID 2629 | hit rate 0.6% among 320,000 | cell-free LANA-H2A/H2B peptide, fluorescence polarization | inhibition, % (test concentration not listed) | Q9QR71; in the data active = inhibition mostly above about 10%, no sharp cut-off; inactive = mostly below about 6.7%;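 also: stock transfer was 7.5 nL into about 10 µL; 0% = median of vehicle wells and 100% = median of positive control wells; one replicate is shown; the record names a cut of 25% in any replicate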
UCH37 inh – inhibitors of human deubiquitinating enzyme UCH37. hit rate 0.33% among 330,000. Q9Y5K5. AID 588478. inhibition, % (test concentration not listed). purified proteasome/UCH37, Ub-AMC cleavage fluorescence;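 active = mean of two replicates above 20%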;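 also: 0% = compound-free wells with enzyme and 100% = wells lacking proteasome; stock transfer was 100 nL into about 20 µL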
Target sequence (Q9Y5K5 whole entry, looked up): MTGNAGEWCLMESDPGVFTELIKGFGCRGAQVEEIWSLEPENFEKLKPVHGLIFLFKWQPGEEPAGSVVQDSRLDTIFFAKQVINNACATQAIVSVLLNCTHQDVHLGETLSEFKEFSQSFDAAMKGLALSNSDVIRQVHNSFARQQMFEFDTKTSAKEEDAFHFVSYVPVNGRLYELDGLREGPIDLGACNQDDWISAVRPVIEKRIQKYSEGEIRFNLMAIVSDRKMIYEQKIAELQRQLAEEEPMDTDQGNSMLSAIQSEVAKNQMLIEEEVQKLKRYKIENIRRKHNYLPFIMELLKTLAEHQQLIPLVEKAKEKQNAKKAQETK
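Assay system: Proteasome-bound UCH37. Buffer or medium: pH 7.4 Tris-HCl (50 mM) with ovalbumin, ATP-MgCl2, DTT. Incubation: 30 min preincubation with enzyme, 25 min cleavage at room temperature. Measured by: fluorescence, ex 355 nm, em 460 nm. Read-out basis: percent inhibition. Control set: wells without proteasome as full block, compound-free enzyme plus substrate as uninhibited.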
ALR H2O2 inh – blocks human ALR sulfhydryl oxidase activity; P55789; purified ALR, DTT oxidation, H2O2 HRP-luminol luminescence; inhibition, % (test concentration not listed); hit rate 3.8% among 290,000;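 active = mean and each replicate at 75% or more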;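 also: stock transfer was 7.5 nL into about 7.5 µL; 0% = neutral wells and 100% = wells with inactivated enzyme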
Target sequence (P55789 whole entry, looked up): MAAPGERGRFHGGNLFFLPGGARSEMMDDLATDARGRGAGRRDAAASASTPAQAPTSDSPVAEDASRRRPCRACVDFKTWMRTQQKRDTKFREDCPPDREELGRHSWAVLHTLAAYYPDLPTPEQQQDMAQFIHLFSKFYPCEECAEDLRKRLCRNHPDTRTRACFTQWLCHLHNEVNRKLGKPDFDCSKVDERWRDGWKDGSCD
HNF4A DNA FP – change in binding of human HNF4 alpha to DNA; P41235; HNF4a-FITC DNA binding, fluorescence polarization, 1 h; activity change, % at 10 µM; hit rate 0.3% among 360,000; in the data active = activity change above about 30%, passing the limit was not always enough;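 also: controls were the assay level and a saturating level of protein; the project sought stronger binding though the title names inhibitors; some compounds called inactive have numbers as strong as hits; positive values seem to mean higher polarization but the record does not say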
* marks the source's active call; other numbers are inactive results; i = inactive; · = no result given. Only part of the results is shown (hit frequency here may not be typical).

no. | Structure | B2AR ag | E coli growth | FGF22 binding | LANA-H2B inh | UCH37 inh | ALR H2O2 inh | HNF4A DNA FP
1 | O=C(NN1C(=O)C2C(C1=O)C1C=CC2C12CC2)c1ccccc1Cl (centres undefined) | -3.6 | 0.648 | i | -4.1 | 0.5 | -9.2 | 1.2
2 | Cc1ccc(N/C(N)=N/c2nc(CSc3ccccn3)cc(=O)[nH]2)c(C)c1 | -10.1 | · | · | -3.9 | -0.1 | -30.4 | 1.2
3 | O=C(CSCc1ccccc1)N1CCN(S(=O)(=O)c2cccc(F)c2)CC1 | 5.1 | · | i | -3.2 | · | -4.1 | -0.6
4 | COc1ccc(C(C)NC(=O)C23CC4CC(CC(C4)C2)C3)cc1 (centres undefined) | 1.1 | 0.669 | i | 4.0 | 2.9 | · | 2.0
5 | CCc1ccc(OCC(=O)Nc2ccc3oc(=O)ccc3c2)cc1 | 1.5 | 0.683 | i | 2.1 | -5.4 | -2.9 | 1.8
6 | COc1ccc(OC)c(NS(=O)(=O)c2ccc(NC(C)=O)cc2)c1 | -8.2 | 0.656 | · | 1.1 | 6.7 | · | -2.8
7 | CCC1Oc2ccccc2N(CC(=O)Nc2ccc3c(c2)OCCO3)C1=O (centres undefined) | -14.6 | 0.693 | · | 0.0 | 3.3 | -2.0 | 3.7
8 | O=C(Nc1ccccc1O)c1cccc(NC(=O)c2ccco2)c1 | -5.7 | · | i | 1.2 | · | 39.7 | -1.0
9 | COc1ccc2sc(NCc3ccccc3)nc2c1 | -2.2 | 0.704 | i | 3.5 | 1.5 | -5.0 | 4.5
10 | O=C(NC1CC2CCCC(C1)N2C(=O)Nc1ccc(Cl)c(C(F)(F)F)c1)C1CC1 (centres undefined) | 2.9 | 0.685 | · | 4.9 | 2.0 | -11.0 | -0.8
11 | CC(C)OC(=O)c1cc(C(=O)c2cc(Br)ccc2O)coc1=N | 5.5 | 0.664 | · | -3.7 | -14.6 | 15.7 | 7.3
12 | COc1ccc(S(=O)(=O)Oc2ccc3cccc(N)c3c2)cc1 | -1.5 | 0.677 | i | 0.8 | 0.4 | -44.5 | 10.6
13 | O=S1(=O)CCC(NC(=S)Nc2ccc3ccccc3c2)C1 (centres undefined) | -9.1 | 0.651 | i | -0.9 | 2.5 | -7.9 | 2.2
14 | Cc1cc(NC(=O)Cn2nc(C(F)(F)F)c3c2CCCC3)no1 | -1.9 | 0.792 | · | 2.0 | 2.9 | 2.0 | -1.4
15 | CCc1ccc(NC(=O)NC(C)c2ccc3c(c2)OCO3)cc1 (centres undefined) | 0.5 | 0.705 | i | 3.1 | 6.4 | -0.5 | -3.0
16 | CCn1c(NC)cc(=O)n(C)c1=O | 10.2 | 0.693 | · | 0.0 | 3.4 | -10.5 | -1.8
17 | O=C(O)C1CC=CCC1C(=O)NCCc1ccccc1 (centres undefined) | 9.0 | 0.733 | · | -0.8 | 4.7 | · | -5.5
18 | C=CCN(Cc1cc(OC)ccc1OC)S(=O)(=O)N(C)C | -1.4 | 0.716 | · | -6.5 | 2.8 | 11.0 | 0.8
19 | Cc1c(-c2ccccc2)[n+](=O)c2c(n1[O-])CCC2 | 2.8 | 0.731 | · | 2.8 | 3.3 | -0.1 | 1.7
20 | CN(C)C1=NCCN1CCc1ccccc1 | -6.5 | 0.654 | i | -0.5 | 2.7 | -15.1 | 6.0
21 | Cc1ccc(CS(=O)Cc2ccc(C(=O)NCc3ccccc3)o2)cc1 (centres undefined) | 5.8 | 0.669 | i | -5.3 | 2.5 | -8.9 | -3.8
22 | O=C(CCN1C(=O)c2ccccc2C1=O)Nc1ccc(-c2cn3ccsc3n2)cc1 | -21.6 | 0.741 | · | 0.4 | 4.5 | -21.4 | 2.9
23 | O=C(CSc1nc2ccccc2c(=O)[nH]1)N1CCOCC1 | -3.0 | 0.659 | · | 4.7 | -2.2 | -6.0 | -1.6
24 | O=c1cc(N2CCOCC2)[nH]c(=O)n1-c1ccc(Cl)cc1 | 6.5 | 0.762 | i | -0.6 | 6.3 | -12.1 | -3.4
25 | Cc1cccc(NC2=C(C#N)C(=O)NC3(CCCC3)S2)c1 | 7.5 | 0.657 | i | 0.3 | 2.6 | 18.6 | 2.6
26 | CC(C)CN(C(=O)c1ccc(N2CCCC2=O)cc1)c1c(N)n(Cc2ccccc2)c(=O)[nH]c1=O | 6.2 | 0.654 | i | 26.0* | -1.7 | 3.8 | 2.5
27 | CC1CCCCC1NC(=O)CCCn1c(=S)[nH]c2ccsc2c1=O (centres undefined) | -7.3 | 0.726 | i | 4.5 | 1.7 | · | 1.0
28 | Clc1ccc2[nH]c3c(NCCN4CCOCC4)ncnc3c2c1 | 3.9 | 0.65 | · | -5.1 | -0.2 | 47.5 | 2.1
29 | Cc1ccc(S(=O)(=O)c2c(O)c3ccc(C(=O)O)cc3[nH]c2=O)cc1 | -2.6 | 0.684 | i | 0.1 | -3.9 | -37.4 | -4.3
30 | O/N=C(\c1ccc2c(c1)OCCO2)C1CCCCC1 | -3.2 | · | · | -3.1 | · | -3.6 | 2.6
31 | CCOC(=O)C1=NOC(Cn2cc(C#N)c(=O)n(C)c2=O)C1 (centres undefined) | 6.3 | 0.659 | i | 3.4 | 1.0 | 8.8 | 2.6
32 | COc1ccc(S(=O)(=O)n2nc(OC(=O)c3ccccc3Br)cc2N)cc1 | 5.6 | 0.743 | · | 3.7 | 7.0 | 11.0 | 3.6
33 | Cc1cccc(N2CCN(S(=O)(=O)c3cnc[nH]3)CC2)c1C | 2.4 | 0.694 | i | -2.3 | 4.6 | -8.8 | -0.6
34 | COc1ccc(/C=C2\SC(=S)N(CCC(=O)Nc3cccc(C(=O)O)c3)C2=O)cc1 | 1.9 | 0.686 | i | -2.9 | 10.8 | 1.7 | 2.3
35 | Cc1nnc(SCC(=O)Nc2ccc3c(c2)OCCO3)n1N | -6.3 | 0.704 | · | 4.8 | -2.2 | -4.1 | -0.3
36 | COc1ccc(CCNS(=O)(=O)c2ccc(C3CNC(=O)C3)cc2)cc1OC (centres undefined) | 0.7 | 0.656 | i | -0.9 | 1.7 | 1.2 | 0.8
37 | CC1CCN(c2ccccc2NC(=O)c2cc([N+](=O)[O-])ccc2N2CCOCC2)CC1 | 8.3 | 0.737 | i | -0.4 | 5.2 | -10.0 | 0.8
38 | O=C(CCSc1nc(-c2ccco2)cc(C(F)(F)F)n1)NCc1ccccn1 | -8.6 | 0.691 | · | 3.8 | 2.3 | -0.1 | 1.1
39 | O=C(CCCN=C1NS(=O)(=O)c2ccccc21)OCC(=O)c1ccccc1Cl | 3.9 | 0.687 | i | 8.3 | 1.9 | -0.6 | 1.3
40 | Cc1ccccc1C(C(=O)NC1CCCC1)N(C(=O)Cc1cccs1)c1ccc2c(c1)OCCO2 (centres undefined) | 9.4 | 0.701 | · | -3.0 | 3.1 | -1.7 | -0.6

Rewritten with values ahead of the structure: entries from further up.
cpd	B2AR ag	E coli growth	FGF22 binding	LANA-H2B inh	UCH37 inh	ALR H2O2 inh	HNF4A DNA FP	smiles
38	-8.6	0.691	·	3.8	2.3	-0.1	1.1	O=C(CCSc1nc(-c2ccco2)cc(C(F)(F)F)n1)NCc1ccccn1
33	2.4	0.694	i	-2.3	4.6	-8.8	-0.6	Cc1cccc(N2CCN(S(=O)(=O)c3cnc[nH]3)CC2)c1C

Other compounds.
no. | Structure | B2AR ag | E coli growth | FGF22 binding | LANA-H2B inh | UCH37 inh | ALR H2O2 inh | HNF4A DNA FP
41 | CC1CCN(CC(=O)Nc2nc(-c3ccccc3)cs2)CC1 | 12.4 | 0.67 | i | -2.9 | 1.6 | -5.2 | 3.1
42 | CCCCn1c(N)c(C(=S)NC(=O)CC(C)C)c(=O)n(C)c1=O | 6.7 | 0.658 | · | · | 4.8 | · | 2.4
43 | Cc1cccc(C(=O)Nc2cccc(C(=O)N/N=C/c3ccncc3)c2)c1 | 1.7 | · | i | -2.5 | · | -5.8 | 0.1
44 | Cc1ccc2nc(SCC(=O)NC3CCCc4ccccc43)[nH]c2c1 (centres undefined) | 3.4 | 0.649 | · | -2.9 | 6.1 | 0.3 | 3.2
45 | Cc1cc(-c2sccc2Br)nc(-n2cccc2)n1 | 19.1 | 0.698 | i | · | 1.5 | · | 3.7
46 | CC(Cc1ccccc1)NC(=O)CSc1nc2nc3c(cc2c(=O)n1-c1ccccc1)COC(C)(C)C3 (centres undefined) | 7.0 | 0.672 | · | 1.6 | 1.1 | -4.6 | 1.8
47 | COc1ccccc1-c1noc2ncnc(Nc3cccc(C)c3)c12 | 3.6 | 0.682 | i | -0.3 | 0.3 | 9.8 | 0.0
48 | O=C(CN1C(=O)NC2(CCCC2)C1=O)Nc1ccc(F)cc1 | 2.0 | 0.719 | · | -0.1 | 1.6 | -1.8 | -2.6
49 | Cc1cc(C)n(S(=O)(=O)c2cc(C(=O)O)c(Cl)cc2Cl)n1 | -4.0 | 0.663 | i | 2.9 | 1.3 | 4.1 | 2.0
50 | COc1ccc(S(=O)(=O)N2CCC(C(=O)N[C@@H](C)C(=O)NCc3cccc(OC)c3)CC2)cc1 | -0.9 | 0.703 | i | -3.6 | 2.3 | 0.8 | -0.2
51 | O=C(OCC(=O)C12CC3CC(CC(C3)C1)C2)c1ccc(O)cc1O | -2.7 | 0.681 | i | 5.7 | 3.0 | -7.9 | -1.4
52 | Cc1noc(C)c1C(=O)OCC(=O)N(C)C1CCS(=O)(=O)C1 (centres undefined) | 0.0 | 0.725 | i | 1.5 | 4.4 | -10.6 | 3.1
53 | O=C(NCC(=O)N(Cc1ccc(F)cc1)C(C(=O)NC1CCCC1)c1ccco1)c1ccco1 (centres undefined) | 9.9 | 0.684 | · | 1.6 | 3.2 | -5.6 | 1.0
54 | Cc1cccc(NC(=O)CSCC(=O)N=c2sccn2C)c1 | -0.3 | 0.605 | i | -1.5 | -0.3 | 43.9 | -3.0

Looked up by structure from above, two records:
no. | Structure | B2AR ag | E coli growth | FGF22 binding | LANA-H2B inh | UCH37 inh | ALR H2O2 inh | HNF4A DNA FP
29 | Cc1ccc(S(=O)(=O)c2c(O)c3ccc(C(=O)O)cc3[nH]c2=O)cc1 | -2.6 | 0.684 | i | 0.1 | -3.9 | -37.4 | -4.3
6 | COc1ccc(OC)c(NS(=O)(=O)c2ccc(NC(C)=O)cc2)c1 | -8.2 | 0.656 | · | 1.1 | 6.7 | · | -2.8

Of the compounds above, 3 have a CF3 group:
no. | Structure | B2AR ag | E coli growth | FGF22 binding | LANA-H2B inh | UCH37 inh | ALR H2O2 inh | HNF4A DNA FP
10 | O=C(NC1CC2CCCC(C1)N2C(=O)Nc1ccc(Cl)c(C(F)(F)F)c1)C1CC1 (centres undefined) | 2.9 | 0.685 | · | 4.9 | 2.0 | -11.0 | -0.8
14 | Cc1cc(NC(=O)Cn2nc(C(F)(F)F)c3c2CCCC3)no1 | -1.9 | 0.792 | · | 2.0 | 2.9 | 2.0 | -1.4
38 | O=C(CCSc1nc(-c2ccco2)cc(C(F)(F)F)n1)NCc1ccccn1 | -8.6 | 0.691 | · | 3.8 | 2.3 | -0.1 | 1.1
